Autofluor counter: counter-screen for toxin protease inhibitors: compound fluorescence. AID 624483. fluorescence intensity (test concentration not listed). actives 3.1% (n = 360,000). compound autofluorescence counterscreen, microsphere flow cytometry; active compounds read high;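 active = at least 3 SD above the mean of all compounds, about 16000 in these data; inconclusive = too few beads counted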;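 note: 100 nL of 1 mM stock went into each well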
BJeLR viability: MLPCN primary cell-based screen for lethality selective to Ras in HRASV12 cells; inhibition, % (test concentration not listed); AID 1554, 2009; BJeLR (HRASV12) viability, CellTiter-Glo ATP luminescence, 48 h; reference of the scale not given here; actives 0.17% (n = 300,000);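 active = replicate mean above 50%; inconclusive = above 50% but judged a plate artefact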;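 note: 50 nL library stock added to about 25 µL; numbers are from one replicate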
Mtb hypoxia inh: PubChem AID 1159583; M. tuberculosis hypoxia-regulated fluorescent reporter, fluorescence; fluorescence inhibition, % (no concentration beside the values); actives 0.1% (n = 300,000);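 active = 35 to 45% if threefold the growth effect, above 45% if 1.5-fold the growth effect; inactive = the rest, general growth blockers included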;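 note: wells of about 50 µL received 100 nL stock; 0% = vehicle wells and 100% = reference inhibitor wells; whole bacteria with a GFP reporter of the hypoxia response; strong numbers were not always called active; many hits fall short of the cut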
Sa RN4220 lethal: growth inhibition of S. aureus RN4220, primary screen, OD600 | 16 h | inhibition, % (no concentration beside the values) | actives 0.33% (n = 330,000) | AID 1259311, 2017;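 active = z-score of -3 or lower and OD600 up to 0.18 on both plates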;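 note: plate controls were untreated cells for no effect and reference antibiotic for full effect; stock transfer was 100 nL into about 80 µL; one replicate is shown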
ugtP null kill: growth inhibition of ugtP-null S. aureus, primary screen, RN4220 ugtP deletion, OD600; 16 h; some inactives read as strong as hits; AID 1259309, 2017; growth inhibition, % (test concentration not listed); actives 0.54% (n = 330,000);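 active = z-score under -3 and OD600 up to 0.15 on both plates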;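 note: plate controls were untreated wells for no effect and antibiotic for full effect; wells of about 80 µL received 100 nL stock; the first replicate is given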
PrP 5UTR inh: inhibition of PrP 5' UTR reporter expression. AID 488862, 2010. cell-based PrP 5' UTR mRNA reporter, plate reader. actives 0.35% (n = 340,000). inhibition, % (test concentration not listed);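 active = every replicate at 50% or more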;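 note: 0 = median of the neutral control wells; tested in H4 reporter cells; numbers are from one replicate; inactives centre near -14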
Mtb hypoxia inh growth: recorded beside Mtb hypoxia inh, whose call it bears; growth inhibition, %; measured here: M. tuberculosis growth (absorbance);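 0% = vehicle and 100% = reference antibiotic; read after six days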
* hit, by the source's call; ? = inconclusive; / = no result given.

SMILES | Autofluor counter | BJeLR viability | Mtb hypoxia inh | Mtb hypoxia inh growth | Sa RN4220 lethal | ugtP null kill | PrP 5UTR inh
Cc1cc(C)cc(N(CC(=O)NC2CCCCC2)C(=O)c2ccc(C)s2)c1 | 12549 | 3 | 2 | 4 | 1.3 | 2 | -13
CCCc1c(C)c2ccc(OCC(C)=O)cc2oc1=O | 2985 | -6 | / | / | -1.5 | -7 | -55
Cc1[nH]n(-c2ccccc2)c(=O)c1N=Nc1cccc(Cl)c1 | 3809 | -2 | -4 | -8 | 2.5 | 0 | -35
Cc1cc(NC(=O)C(C)SCC(=O)Nc2ccccc2N2CCCC2)no1 (centres undefined) | ? | 14 | / | / | / | / | -13
Cc1cccc2cc(C#N)c(SCC(=O)NCC3CCCO3)nc12 (centres undefined) | 3471 | -3 | / | / | 1.7 | 5 | -3
CCOC(=O)c1cc(CC)sc1N=CC1=C(O)CC(C)(C)CC1=O | / | / | 0 | 5 | 7.0 | 9 | /
CCCCn1c(/N=C/c2cc(OC)ccc2O)nc2ccccc21 | 2894 | 20 | / | / | / | / | -21
CC(=O)c1ccc(N=Nc2c(C)[nH]n(-c3ccccc3)c2=O)cc1 | 2967 | 5 | 15 | 8 | 11 | -6 | -21
COc1ccc(C(=O)NC2CCN(C(=S)Nc3ccccc3)CC2)cc1 | 3651 | -3 | 4 | 0 | 4.2 | 4 | -17
O=c1[nH]c(/C=C\c2cccs2)nc(O)c1[N+](=O)[O-] | 5126 | 1 | 14 | 8 | 5.0 | 5 | -29
CCOc1cc([N+](=O)[O-])cc(/C=N/NC(=O)c2c(-c3ccccc3)noc2C)c1O | ? | 3 | / | / | / | / | -14
O=C1CC(N2CC=C(c3ccccc3)CC2)C(=O)N1c1ccc(F)cc1 (centres undefined) | 6697 | -4 | / | / | 3.9 | 4 | -13
CC(C)(CO)NC(=S)NCc1ccco1 | 3881 | -2 | -7 | 5 | -2.7 | -1 | -9
COC(CNC(=O)c1ccc2c(c1)ncn2-c1cccc(F)c1)OC | 2440 | 4 | -5 | 7 | 0.8 | 16 | -16
COc1cccc(-n2c(SCC(=O)Nc3ccc4c(c3)CCC4)nc3ccccc3c2=O)c1 | 2018 | 0 | 8 | 5 | 6.1 | -1 | -15
COc1cccc(CC(=O)OC(C)C(=O)Nc2ccc(Cl)cn2)c1 (centres undefined) | 4594 | -6 | -1 | -7 | 1.4 | 11 | -2
COc1ccccc1OCCNC(=O)c1cccc(S(=O)(=O)N2CCN(C)CC2)c1 | 6772 | 2 | 8 | 8 | -1.9 | 3 | -16
Cc1nc(-c2nc(-c3c(C(=O)NNC(=O)c4ccc(Cl)cc4)noc3C)cs2)cs1 | 4848 | -2 | -2 | -5 | 5.0 | -3 | -2
O=C(NCC(c1ccco1)N1CCCC1)c1cccc(NS(=O)(=O)c2ccccc2)c1 (centres undefined) | 16491* | -4 | 8 | 1 | 0.6 | 0 | -15
CCn1nc(C)c(NC(=O)CCSc2nc(-c3ccco3)cc(C(F)(F)F)n2)c1C | 4435 | -9 | -3 | -4 | -4.8 | -1 | -3
O=C(c1cn2ccccc2n1)N1CCc2c([nH]c3ccccc23)C1c1ccccn1 (centres undefined) | 2340 | 2 | -3 | 6 | 0.5 | -4 | -9
CCCC(C(=O)Nc1ccc(S(=O)(=O)N2CCCC2)cc1)c1ccccc1 (centres undefined) | 6007 | 1 | 6 | 2 | -0.9 | 2 | -9
O=C(CSc1nnc(-c2ccccc2O)n1-c1ccccc1)Nc1cccc(C(=O)O)c1 | 2474 | 0 | 11 | 12 | 4.3 | 5 | -16
Cc1noc(C)c1COC(=O)CNC(=O)c1ccc(Cl)cc1 | 4152 | 0 | 3 | -3 | 7.3 | 2 | -23
COc1ccc(C(=O)CSc2nnc(-c3cc(C)cc(C)c3)o2)cc1 | 9492 | 5 | -3 | 11 | 1.4 | -4 | -11
CC(=O)Nc1ccc2c(c1)nc(CCNC(=O)c1ccccc1)n2C | 8296 | -10 | 3 | 8 | 0.4 | -1 | -24
N#C/C(=C\C1=C(N2CCOCC2)C(=C\c2ccc(Cl)cc2)/CC1)C(=O)Nc1ccccc1F | 3602 | 5 | 6 | -12 | 1.7 | 2 | -22
COc1ccc(CC(=O)Nc2ccc3nc(C)sc3c2)cc1OC | 2425 | -1 | -10 | 8 | 0.4 | -3 | -12
c1ccc(Oc2ccc(-c3ccnc4ncnn34)cc2)cc1 | 2514 | 10 | 17 | 5 | 5.3 | 13 | -41
CCCC(=O)Nc1c(-c2ccc(OC)cc2)c(=O)c2ccccc2n1C | 11300 | 6 | 5 | 4 | 4.6 | 3 | -16
COc1ccc(-c2cc(C)no2)cc1S(=O)(=O)NCC1CCN(Cc2cc(C)ccc2C)CC1 | 9195 | 5 | 3 | 3 | 1.0 | 4 | -15
CCOC(=O)c1c(CN2CCCCC2)oc2ccc(O)cc12 | 2416 | 3 | / | / | -1.3 | 5 | -5
Cc1cc(N2CCC(C)CC2)nc2cccc(O)c12 | 5750 | 7 | 7 | 4 | 5.2 | 11 | -42
CCOC(=O)c1c(NC(=O)C2CCCN(S(=O)(=O)c3ccccc3)C2)sc2c1CCCC2 (centres undefined) | 12164 | 5 | 7 | 16 | -0.6 | 8 | -10
COc1ccc(CCNC(=O)CSc2nc(O)c(CC(C)C)c(=O)[nH]2)cc1OC | 4688 | -3 | / | / | -1.8 | 9 | -25
CC1=C(C)C(=NOS(=O)(=O)c2ccc(C)cc2)C=CC1=O | / | / | 4 | 2 | 25 | 64 | /
COc1ccc(CCNS(=O)(=O)c2cccc(C)c2)cc1OC | 20544* | 6 | 8 | 8 | 3.9 | 1 | -29
Cc1ccc(S(=O)(=O)N2CCN(C(=O)COC(=O)COc3ccc(Cl)c(C)c3)CC2)c(C)c1 | 2891 | / | 5 | -1 | 9.5 | 14 | 3
O=C1CC2(CC(c3ccc(Cl)cc3)=NO2)C(=O)N1c1ccccc1 (centres undefined) | 5423 | 0 | 1 | -4 | 2.0 | 2 | -18
CCOn1c(=O)c(-c2ccc(OC)c(OC)c2)[n+]([O-])c2ccccc21 | 3930 | 5 | / | / | 0.0 | -1 | -9
COc1cccc2c(=O)cc(C)n(CC(=O)Nc3ccc(C)c(C)c3)c12 | 2962 | -12 | 15 | 5 | -5.6 | -6 | -25
O=C(O)c1cc(-c2ccc(N3CCOCC3)cc2)nn1-c1ccc(F)cc1F | 2063 | -5 | 4 | 5 | 2.7 | 3 | -20
CCC(=O)Nc1cccc(-c2cn3ccccc3n2)c1 | 2387 | -2 | 7 | 7 | 2.6 | 2 | -14
COc1ccc2[nH]c(C)cc(=O)c2c1 | 3088 | 5 | / | / | 8.8 | -2 | -17
CC(C)C(=O)Nc1ccc(N2CCN(c3ccc(F)cc3)CC2)cc1 | 4349 | 3 | -9 | -14 | 1.2 | 3 | -10
CC(C)NC(=O)N1c2ccccc2Sc2ccccc21 | 3575 | -12 | 21 | 15 | 5.5 | 20 | -12
NC1=NC(=O)/C(=C/c2ccccc2OS(=O)(=O)c2ccccc2)S1 | 7027 | 1 | 1 | -7 | 1.3 | -4 | -12
CC(=O)N1CC(=O)Nc2ccc(Cl)cc2C1c1ccccc1 (centres undefined) | 3440 | 3 | 3 | 6 | 4.3 | 17 | -4
O=C(COC(=O)c1ccccc1Nc1ccc(SC(F)F)cc1)NC1CC1 | 2692 | 3 | -6 | 7 | 2.8 | -9 | -38
COCCn1c(SCc2cccc([N+](=O)[O-])c2)nc2ccccc2c1=O | 4113 | -13 | 6 | 8 | 1.9 | 2 | -8
C=CCN(CC=C)C(=O)c1ccccc1NC(=O)c1ccccc1C | 2344 | 2 | / | / | -1.0 | 2 | -17
C/C=C/C(=O)NCCc1ccc(OC)c(OC)c1 | 2529 | 3 | 3 | 5 | 2.8 | 4 | -15
COc1ccc(-n2nnc3c(SCC(=O)OCc4ccccc4)ncnc32)cc1 | 3315 | 5 | 8 | 13 | 1.6 | 6 | 1
COc1ccc(C(CC(=O)Nc2nccs2)C(C)C)cc1 (centres undefined) | 3610 | 9 | 8 | 5 | 3.7 | 5 | -15
CNCCCCOc1ccc(C(C)(C)C)cc1Cl | 2105 | 0 | 17 | 22 | -3.7 | 24 | -18
CC(C(=O)N1c2ccccc2CC1C)N1CCN(S(=O)(=O)c2ccccc2F)CC1 (centres undefined) | 4666 | / | -6 | 6 | -0.3 | 3 | -14
CCn1cc2c(c1-c1cccc(C)c1)c(=O)n(C)c(=O)n2C | 9547 | 14 | 3 | 0 | 3.3 | 3 | -1
CCOc1ccccc1NC(=O)CSC1=C(C#N)C(c2ccco2)C(C(=O)Nc2nc3ccccc3s2)=C(C)N1 (centres undefined) | 2101 | -2 | 0 | 7 | 0.0 | -19 | -5
Cc1ccccc1NC(=O)CSc1nc2n(n1)CCCCC2 | 2360 | -6 | 14 | 4 | 6.7 | 2 | -4
S=C(NCc1ccc(Cl)cc1)NCc1ccccn1 | 3109 | / | 16 | 13 | 0.6 | 1 | -16
Next results
SMILES | Autofluor counter | BJeLR viability | Mtb hypoxia inh | Mtb hypoxia inh growth | Sa RN4220 lethal | ugtP null kill | PrP 5UTR inh
COc1ccc(/C=C/c2nc(-c3ccccc3)cc(=O)[nH]2)cc1 | 4535 | 2 | 16 | 6 | 2.3 | -5 | 7
Cc1csc(SCC(=O)NC(=O)NC(C)C)n1 | 3798 | -2 | 2 | -2 | 7.0 | 11 | -20
COc1ccc(NC(=O)CSC2=NCCN2)cc1 | 3471 | 6 | 4 | 5 | 6.3 | 4 | -8
COc1cc(SC)ccc1C(=O)NCCOc1ccc(F)cc1 | 2160 | 9 | 21 | 10 | 5.2 | 5 | -71
Cc1ccc(C(=O)CC(C(=O)O)n2cncn2)cc1 (centres undefined) | ? | -4 | 17 | 7 | 1.5 | 4 | -15
CC(C)(C)c1oc(C(=O)O)cc1CN1CCOCC1 | 6146 | 10 | 12 | 0 | 5.6 | -2 | -13
CCCCCCCCN1[C@@H](CC(=O)OC)c2cc(F)ccc2S1(=O)=O | 3839 | 4 | / | / | / | / | 2
O=C(c1ccc(-c2nnc(Nc3ccccc3)c3ccccc23)cc1)N1C[C@H]2C[C@H](C1)c1cccc(=O)n1C2 | 3489 | -9 | / | / | 2.9 | 2 | -11
CCOC(=O)c1[nH]c2ccccc2c1NC(=O)c1ccc(Br)o1 | 8680 | 4 | 6 | 10 | 11 | -16 | 7
Cc1ccc(OCC(=O)N2CCN(c3nnc(-c4ccccc4)c4ccccc34)CC2)cc1 | 9134 | -10 | -1 | -4 | -2.6 | -1 | -3
O=C(CN1C(=O)/C(=C/c2ccccc2)SC1=S)NC1CCS(=O)(=O)C1 (centres undefined) | 5564 | -14 | 9 | -9 | 3.4 | -3 | -13
CCOc1ccc(NS(=O)(=O)c2ccc3[nH]cc(C(=O)N(CC)CC)c(=O)c3c2)cc1 | 3817 | / | 9 | 11 | 4.0 | -4 | -12

Individual results from the entries so far:
Entry of COc1ccc(CC(=O)Nc2ccc3nc(C)sc3c2)cc1OC in BJeLR viability: -1
Entry of O=c1[nH]c(/C=C\c2cccs2)nc(O)c1[N+](=O)[O-] in PrP 5UTR inh: -29
Entry of CCOc1ccccc1NC(=O)CSC1=C(C#N)C(c2ccco2)C(C(=O)Nc2nc3ccccc3s2)=C(C)N1 (centres undefined) in Sa RN4220 lethal: 0.0
Entry of CCCC(=O)Nc1c(-c2ccc(OC)cc2)c(=O)c2ccccc2n1C in BJeLR viability: 6
Entry of Cc1ccc(C(=O)CC(C(=O)O)n2cncn2)cc1 (centres undefined) in Mtb hypoxia inh: 17
Entry of S=C(NCc1ccc(Cl)cc1)NCc1ccccn1 in Mtb hypoxia inh: 16

Record cards, as listed above. Order of values: Autofluor counter	BJeLR viability	Mtb hypoxia inh	Mtb hypoxia inh growth	Sa RN4220 lethal	ugtP null kill	PrP 5UTR inh
Listed for CCC(=O)Nc1cccc(-c2cn3ccccc3n2)c1 : 2387	-2	7	7	2.6	2	-14
Listed for c1ccc(Oc2ccc(-c3ccnc4ncnn34)cc2)cc1 : 2514	10	17	5	5.3	13	-41

Additional entries.
SMILES | Autofluor counter | BJeLR viability | Mtb hypoxia inh | Mtb hypoxia inh growth | Sa RN4220 lethal | ugtP null kill | PrP 5UTR inh
COc1ccc(OC)c(-n2nnnc2SCC(=O)O)c1 | 9510 | 4 | 0 | 2 | 4.7 | -9 | -39
O=C1NC(=S)N/C1=C/c1cc2c(cc1[N+](=O)[O-])OCO2 | 3558 | 13 | / | / | / | / | -15
CCn1c(SCc2ccccc2)nnc1-c1cccs1 | 7209 | -2 | 5 | -3 | 7.6 | -1 | -9
CN(C)/C=C(\C#N)c1nc2ccccc2[nH]1 | 5167 | 4 | 7 | 10 | 6.6 | 0 | -33
